Compound activity (PubChem)
Cruzain noTriton – qHTS Assay for Promiscuous and Specific Inhibitors of Cruzain (without detergent); Cruzipain (Trypanosoma cruzi), P25779; purified cruzain, Z-FR-AMC fluorescence, no detergent; Potency, µM, inactives show max response, negative = inhibition, most hits filed as inhibitors; 2.3% of 200,000 active; AID 1476, 2009;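 note: plate controls were enzyme without inhibitor for no effect and buffer without enzyme for full effect; nearly all actives have a fitted effect of over 40% in size; top concentration of the series not given in the record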
Target sequence (P25779 123-467 limits assumed): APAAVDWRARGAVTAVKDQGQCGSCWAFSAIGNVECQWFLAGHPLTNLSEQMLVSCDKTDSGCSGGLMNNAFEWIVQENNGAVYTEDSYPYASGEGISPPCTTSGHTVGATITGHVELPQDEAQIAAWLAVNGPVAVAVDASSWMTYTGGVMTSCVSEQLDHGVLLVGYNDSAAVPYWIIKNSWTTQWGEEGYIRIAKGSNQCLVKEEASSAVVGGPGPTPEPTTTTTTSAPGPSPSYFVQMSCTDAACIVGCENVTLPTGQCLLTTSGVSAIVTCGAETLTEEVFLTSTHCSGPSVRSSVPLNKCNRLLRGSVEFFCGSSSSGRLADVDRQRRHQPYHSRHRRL
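Purified cruzain at 1.5 nM, pre-incubated 15 min with compound at room temperature in 100 mM sodium acetate pH 5.5, 5 mM DTT, 0.00005% Triton X-100. Reaction started with 2 uM Z-FR-AMC; AMC fluorescence increase over 60 s gives rate.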
StopGo reporter – High Throughput Screening for Foot and Mouth Disease Virus Antivirals. AID 1159524, 2015. human cells with a luciferase reporter of 2A StopGo recoding; control for the full effect not named in the record. Potency, µM (highest dose often 57.9 µM), without a hit: at the top dose signal change, negative = less light. 1.2% of 410,000 active; active = well fitted falling curve with a large enough effect; inconclusive = small, poorly fitted or top-dose-only effect; inactive = no such curve, though single readings can be large or run the other way; tested in HEK293T cells; note: % is set by controls: 0 for no effect and ±100 for the full control effect; nearly all actives have a fitted effect of over 45% in size; luciferase light after 4 h
Lassa entry inh – qHTS for Inhibitors of binding or entry into cells for Lassa Virus | Lassa virus pseudotype entry inhibition, cell reporter; control for the full effect not named in the record | Potency, µM (doses to about 37.9 µM), for the others: top-dose activity change, negative = inhibition, most hits filed as inhibitors | 1.2% of 300,000 active | AID 540256, 2011; active means well fitted inhibition curve with a large enough effect; inconclusive means small, poorly fitted or top-dose-only effect, or effect the other way; inactive means flat fitted curve, though single readings scatter; tested in HEK293 cells; note: % is set by controls: 0 for no effect and ±100 for the full control effect; nearly all actives have a fitted effect of over 50% in size; luciferase read-out
RE007 growth inh – qHTS Assay for Inhibitors of the HIV-1 protein Vpr; AID 651644, 2012; Potency, µM (doses to about 92.2 µM), without a hit: at the highest dose activity change, negative = less growth; 0.21% of 360,000 active; S. pombe RE007 Vpr strain, BacTiter-Glo ATP luminescence, 24 h; control for the full effect not named in the record; active = well fitted falling curve with a large enough effect; inconclusive = small, poorly fitted or top-dose-only effect; inactive = no such curve, though single readings can be large or run the other way;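 note: % is set by controls: 0 for no effect and ±100 for the full control effect; nearly all actives have a fitted effect of over 50% in size; the assay follows cell death caused by Vpr and the record does not say whether a fall means rescue or toxicity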
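Fission yeast strain RE007, carrying one chromosomally integrated HIV-1 vpr copy, was seeded at OD 0.01 in PMG+AL medium with 23 nL pinned compound. After 24 h at 30 °C and 99% humidity, viability was read by BacTiter-Glo luminescence.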
NS1 function inh – qHTS Assay for Inhibitors of Influenza NS1 Protein Function. 0.4% of 270,000 active. Potency, µM (doses to about 46.1 µM), without a hit: at the top dose activity, positive = more growth. S. cerevisiae slowed by influenza A NS1, growth recovery by OD600. AID 2326, 2010; active means well fitted rising curve with a large enough effect; inconclusive means small, poorly fitted or top-dose-only effect; inactive means no such curve, though single readings can be large or run the other way; note: nearly all actives have a fitted effect of over 50% in size
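A cell-based growth assay was used: compounds that relieve NS1-induced slow growth of budding yeast raise OD600. Assay medium was yeast nitrogen base with ammonium sulphate and -URA supplement, pH 6.0, with 2% galactose.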
Cruzain Triton – qHTS Assay for Promiscuous and Specific Inhibitors of Cruzain (with detergent); Potency, µM, for the others: max response, negative = inhibition, usual class: inhibitors; 0.43% of 200,000 active; purified cruzain, Z-FR-AMC fluorescence, 0.01% Triton; Cruzipain (Trypanosoma cruzi), P25779;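 note: plate controls were neutral wells for no effect and buffer without enzyme for full effect; nearly all actives have a fitted effect of over 40% in size; top concentration of the series not given in the record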
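Detergent-containing run (0.01% Triton X-100) in acetate buffer pH 5.5 with 5 mM DTT: enzyme at 1.5 nM final, 15 min compound preincubation at room temperature, then 2 uM Z-FR-AMC substrate. Activity taken as 60 s fluorescence increase at 360/450 nm.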
SARS PLP yeast – qHTS of Yeast-based Assay for SARS-CoV PLP | S. cerevisiae expressing SARS-CoV PLpro, growth rescue; control for the full effect not named in the record | Potency, µM (titrated, usually from 32.9 µM), for the others: at the top dose activity, positive = growth rescue | 0.19% of 330,000 active | AID 485353, 2010; active means well fitted rising curve with a large enough effect; inconclusive means small, poorly fitted or top-dose-only effect; inactive means no such curve, though single readings can be large or run the other way; note: 0% is about no effect; nearly all actives have a fitted effect of over 55% in size; growth read by luminescence after 48 h
Marburg entry inh – qHTS for inhibitors of binding or entry into cells for Marburg Virus | 1.8% of 300,000 active | Potency, µM (top dose mostly 37.8 µM), without a hit: at the highest dose activity change, negative = inhibition, usual class: inhibitors | Marburg virus pseudotyped entry inhibition, cell reporter; control for the full effect not named in the record; about a third of the inactives were read at about 46 µM; active = well fitted inhibition curve with a large enough effect; inconclusive = small, poorly fitted or top-dose-only effect, or effect the other way; inactive = flat fitted curve, though single readings scatter; tested in HEK293 cells; about a fifth of its hits are not listed in these tables; note: % is set by controls: 0 for no effect and ±100 for the full control effect; luciferase read-out
* hit, by the source's call; ? = inconclusive; . = not tested or not shown; & = joins results of further samples; [ ] = remark or other dose. Unless noted, calls come from the whole dose curve; as a rule, active = well fitted curve in the direction sought with a large enough effect; inconclusive = small, poorly fitted or top-dose-only effect, or another doubt; inactive = no such curve, though single readings can be large; an effect the other way counts as inactive or inconclusive. Potency is the fitted concentration of half-maximal effect.

SMILES	Cruzain noTriton	StopGo reporter	Lassa entry inh	RE007 growth inh	NS1 function inh	Cruzain Triton	SARS PLP yeast	Marburg entry inh
C1N2CN3CN1CN(C2)C3	8%	-9%&-7%	.	-1%[18.4 µM]	.	4.7%	.	.
Cc1nc(N)nc(N)c1-c1ccc(Cl)c(Cl)c1	.	-23%	1µM*	0%	.	.	.	?
CCCc1nnc(SCC(=O)Nc2ccc(OC)cc2)o1	.	11%	?	-2%	3%	.	8%	?
COc1ccc(-c2nnc(SCC(=O)OC3CCCCC3)o2)cc1OC	23%	1%	-12%	-9%	-35%	-2.3%	-2%	22%
O=C(Nc1cccnc1Cl)c1cc([N+](=O)[O-])ccc1Cl	.	-14%	?	14%	.	.	5%	?
COc1ccc(NC(=O)C2CCC(C)(C(=O)O)C2(C)C)cc1 (stereo unspecified)	-11%	-3%	1%	16%	2%	6.1%	.	3%[46.1 µM]
CCOC(=O)C1/C(=N\O)CC(C)(O)C(C(=O)OCC)C1c1ccc(OC)c(OC)c1 (stereo unspecified)	3%	-2%	17%	2%	1%	7.1%	-1%	-2%
O=S1(=O)CCO[C@H]2Cc3ccccc3[C@H]2N1Cc1cccc(F)c1	.	-23%	.	5%	-53%	.	-3%	.
CCOC(=O)CCCCC(=O)c1[nH]c(=O)[nH]c1CSc1nc(-c2ccccc2)c(C#N)c(=O)[nH]1	?	.	5%	8%	6%	-6.8%	1%	15%
CCC1c2ccc(C)n2CCN1C(=O)Nc1ccccc1C(=O)OC (stereo unspecified)	-22%	-28%	0%	4%	14%	3.4%	-5%	-29%
Cc1cccc(/C=N\NC(=O)c2ccccc2-n2cccc2)c1	.	-16%	-18%	-13%	.	.	0%	-21%[14.2 µM]
Nc1cc(N)nc(SCC(=O)Nc2ccccc2N2CCOCC2)n1	.	-9%	8%	7%	-4%	.	-2%	-6%
Cc1ccc(OCCC(=O)Nc2ccccc2C(=O)NC2CC2)cc1	.	-3%	.	29%	-26%	.	-3%	.
O=C(O)CN(C1CCCCC1)S(=O)(=O)c1ccc(F)cc1	.	-13%	-11%[46.1 µM]	-18%	.	.	2%	8%[46.1 µM]
CN1CCN(C(=O)C2CC(=O)N(c3ccc(Cl)cc3)C2)CC1 (stereo unspecified)	.	-8%	11%[46.1 µM]	3%	-6%	.	0%	1%[46.1 µM]
Cc1ccc(NC(=O)[C@@]2(CC(=O)O)CC(/C=C/c3ccccc3)=NO2)c(C)c1	.	9%	11%[46.1 µM]	6%	2%	.	2%	14%[46.1 µM]
CCc1ccc(C2C(C(=O)Nc3ccccc3C)=C(C)Nc3nc(SCc4cccc(OC)c4)nn32)cc1 (stereo unspecified)	3%	-7%	14%[46.1 µM]	.	.	3.1%	.	.
COc1ccc(NC(=O)CSc2nc3ccccc3[nH]2)cc1	-1%	20%	.	.	.	-10%	.	15%[46.1 µM]
CCN(CC)CCNC(=O)C(=O)NCC1OCCN1C(=O)c1ccc2c(c1)OCO2 (stereo unspecified)	-4%	.	-22%	.	9%	0.3%	-17%	-4%
O=C(COc1cccc(Br)c1)NN=C1c2ccccc2-c2ccccc21	-4%	-12%	11%	10%	16%	-3.0%	0%	?
Cc1ccc(NC(=O)CC2Oc3ccccc3NC2=O)cc1C (stereo unspecified)	-21%	8%	.	.	.	-1.5%	.	3%[46.1 µM]
[O-]/C(=C(\C(=S)Nc1ccccc1F)[n+]1ccccc1)c1ccc(OC(F)F)cc1	.	-7%	.	15%	-8%	.	0%	.
O=C(COc1ncnc2sccc12)NC1CCS(=O)(=O)C1 (stereo unspecified)	.	-3%	?	-2%	6%	.	-1%	-1%[46.1 µM]
O=C(Nc1ccc(N2CCN(Cc3ccccc3)CC2)cc1)c1ccco1	.	6%	-7%	2%	4%	.	?	-23%
Cc1cccc(-n2c(O)c(C=Nc3cc(O)ccc3C)c3ccccc3c2=O)n1	.	-17%	6%	2%	-1%	.	2%	?

Exported field by field: part of the list above.
> O=S1(=O)CCO[C@H]2Cc3ccccc3[C@H]2N1Cc1cccc(F)c1
  Cruzain noTriton: . | StopGo reporter: -23% | Lassa entry inh: . | RE007 growth inh: 5% | NS1 function inh: -53% | Cruzain Triton: . | SARS PLP yeast: -3% | Marburg entry inh: .

> CCOC(=O)CCCCC(=O)c1[nH]c(=O)[nH]c1CSc1nc(-c2ccccc2)c(C#N)c(=O)[nH]1
  Cruzain noTriton: ? | StopGo reporter: . | Lassa entry inh: 5% | RE007 growth inh: 8% | NS1 function inh: 6% | Cruzain Triton: -6.8% | SARS PLP yeast: 1% | Marburg entry inh: 15%

Single records, as listed above.
`O=C(Nc1ccc(N2CCN(Cc3ccccc3)CC2)cc1)c1ccco1` across the screens: Cruzain noTriton = .; StopGo reporter = 6%; Lassa entry inh = -7%; RE007 growth inh = 2%; NS1 function inh = 4%; Cruzain Triton = .; SARS PLP yeast = ?; Marburg entry inh = -23%
`O=C(COc1cccc(Br)c1)NN=C1c2ccccc2-c2ccccc21` across the screens: Cruzain noTriton = -4%; StopGo reporter = -12%; Lassa entry inh = 11%; RE007 growth inh = 10%; NS1 function inh = 16%; Cruzain Triton = -3.0%; SARS PLP yeast = 0%; Marburg entry inh = ?

The results go on:
SMILES	Cruzain noTriton	StopGo reporter	Lassa entry inh	RE007 growth inh	NS1 function inh	Cruzain Triton	SARS PLP yeast	Marburg entry inh
O=C(CC12CC3CC(CC(C3)C1)C2)NCc1ccco1	.	-18%	0%	16%	-5%	.	-2%	26%
c1ccc(Oc2cc(-c3ccccc3)nc(-c3ccccc3)n2)cc1	-5%	-13%	1%	-4%	-10%	-5.1%	-1%	4%
Cc1c(CCOC(=O)C2C3CC4CC(C3)CC2C4)sc[n+]1CC(=O)c1ccc(Br)cc1 (stereo unspecified)	-1%	?	-23%	72%&20%	2%	-2.6%	-3%	?
NS(=O)(=O)c1ccc(N2N=C(c3ccc(Br)cc3)CC2c2ccc(F)cc2)cc1 (stereo unspecified)	-27%	22µM*	7.9µM*	-14%	-12%	4.2%	-18%	10µM*
Cc1cc(C)nc(SCc2nnc(SCC(=O)O)n2-c2ccccc2)n1	.	10%	-11%	-7%	0%	.	0%	15%[46.1 µM]
O=C1CC(NS(=O)(=O)c2ccccc2F)CN1c1ccc2c(c1)OCCO2 (stereo unspecified)	.	21%	?	-4%	.	.	1%	37%
N#CC1=C(S)N(c2ccc(F)cc2)C2(CCCCC2)NC1=O	.	-3%	19%[46.1 µM]	4%	10%	.	1%	4%[46.1 µM]
Nc1c(Br)c(=O)[nH]c(=O)n1-c1ccccc1	.	-12%	.	3%	4%	.	1%	.
CCOC(=O)c1cnc(-n2nc(C)cc2C)nc1NCc1ccc2c(c1)OCO2	0%	0%	11%	9%	-4%	5.5%	-15%	-2%
COc1ccc(CNC(=O)Cc2cccs2)cc1	.	35%[activator]	.	3%	6%	.	-2%	.
Cc1cccc(OCc2cc(=O)n3c(-c4ccccc4)csc3n2)c1C	-5%	-2%	-2%[46.1 µM]	.	.	-3.0%	.	?
COc1ccccc1NS(=O)(=O)c1c(C)[nH]c(C)c1C(=O)N1CCCC1	.	-1%	.	-3%	3%	.	3%	.
CCN(CC(=O)NCc1cccs1)C(=O)c1cc(S(=O)(=O)NCc2ccccc2)ccc1C	.	16%	?	17%	.	.	1%	8%
CC1=CSC2=NC(=O)/C(=C\c3cccn3-c3ccccc3)C(=N)N12	13µM*	-25%	-15%	-16%	10%	-9.9%	17%	-18%
CCC(=O)NC1CCN(C(=S)NC)CC1	.	16%	5%	2%	-7%	.	0%	-3%[46.1 µM]
CCOc1ccc(-c2c(C(=O)N/N=C/c3cccc(Br)c3)nnn2-c2nonc2N)cc1	.	-21%	.	-9%	9%	.	-3%	.
CCS(=O)(=O)N1CCN(Cc2nc3ccccc3c(=O)[nH]2)CC1	2%	1%	5%	10%	2%	-0.9%	-5%	12%
Cc1c(CC(=O)O)c(=O)oc2c(C)c(OCc3ccccc3Br)ccc12	.	-7%	-2%[46.1 µM]	3%	8%	.	0%	-1%[46.1 µM]
CCCCc1ccc(NC(=O)CSc2nnc3[nH]c(=O)cc(C)n23)cc1	-16%	2%	12%[46.1 µM]	.	.	0.0%	.	.
O=C(NCCc1ccccc1)C(=O)NCC1CCCO1 (stereo unspecified)	-1%	.	5%	-4%	1%	2.9%	-8%	?
COc1ccc(N=C(C)c2c(O)n(C3CCCCC3)c(=O)[nH]c2=O)c(OC)c1	12%	-4%	-4%	5%	6%	2.9%	2%	11%[46.1 µM]
CCOC(=O)c1ccc(NC(=O)c2c(NCc3cc(OC)c(OC)cc3OC)sc3c2CCCC3)cc1	30%	-22%	13%[46.1 µM]	.	.	-11%	.	.
Cc1cccc(C(=O)Nc2ccc(O)c3c(=O)cc(-c4ccccc4Cl)oc23)c1	?	-22%	2%	-1%	13%	0.6%	3%	-9%&-9%&-9%
CCOC(=O)C1=C(COC(=O)c2c(OC)cccc2OC)NC(=O)NC1C (stereo unspecified)	.	-19%	2%	-6%	.	.	.	-8%[46.1 µM]
Cc1cc(C)cc(C(=O)NC(=S)Nc2ccc3[nH]c(=O)[nH]c3c2)c1	?	-8%	10%	11%	20%	-2.9%	9%	-5%

Rewritten in markdown: 3 of the compounds above.
| SMILES | Cruzain noTriton | StopGo reporter | Lassa entry inh | RE007 growth inh | NS1 function inh | Cruzain Triton | SARS PLP yeast | Marburg entry inh |
| --- | --- | --- | --- | --- | --- | --- | --- | --- |
| COc1ccc(CNC(=O)Cc2cccs2)cc1 | . | 35%[activator] | . | 3% | 6% | . | -2% | . |
| Cc1cccc(OCc2cc(=O)n3c(-c4ccccc4)csc3n2)c1C | -5% | -2% | -2%[46.1 µM] | . | . | -3.0% | . | ? |
| COc1ccccc1NS(=O)(=O)c1c(C)[nH]c(C)c1C(=O)N1CCCC1 | . | -1% | . | -3% | 3% | . | 3% | . |
